Source: PubChem BioAssay
Resorufin fluor: compounds fluorescent in resorufin spectral region; Compound fluorescence, resorufin region 547/598 nm, buffer; stronger effect = higher value; max dye-equivalent concentration, M; 0.04% of 59,000 active; AID 588; active = above 10 nM dye equivalent; inconclusive = 1 to 10 nM; inactive = 1 nM or less; a few of its hits are not listed in these tables; also: highest value over a series up to 38 µM
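Compounds in 100 mM Tris, pH 8.0, incubated 15 min at room temperature, then fluorescence read at 547 nm excitation/598 nm emission. Signal converted to dye-equivalent concentration via an on-plate six-point resorufin standard curve, per compound concentration.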
AID923: qHTS Assay for Allosteric/Competitive Inhibitors of Caspase-1: Spectroscopic Profiling in AFC Spectral Region; compound fluorescence, AFC spectral region (405/520 nm); almost no hit is shown here; 1.1% of 75,000 active; Potency, µM (highest dose often 57.5 µM), without a hit: at the top dose fluorescence increase, most hits filed as activators; active = well fitted activation curve with a large enough effect; inconclusive = small, poorly fitted or top-dose-only effect;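 also: potency is read from the fitted curve at half-maximal effect; 0% is about no effect; scaled to a free AFC standard on each plate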
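Titrations up to 57 uM read every 20 sec for 3 min (405/520 nm) with 50 nM caspase 1 and 5 uM Ac-WEHD-AFC, pH 7.5 HEPES buffer. Fluorescence-vs-time intercept gave baseline, scaled against on-plate AFC standard.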
TSHR ag: activates the human thyroid stimulating hormone receptor. P16473. HEK293-CNG-TSHR cells (CNG channel as cAMP sensor), membrane potential dye, cAMP. Potency, µM (highest dose often 57.1 µM), inactives show top-dose activation, most hits filed as activators. 0.48% of 73,000 active. AID 926; active = well fitted activation curve of enough size with the parental cells flat; inconclusive = any curve in the parental cells; inactive = parental cells flat and receptor cells flat or falling; also: potency is read from the fitted curve at half-maximal effect; % of control where 0% means no effect; weak receptor curves with flat parental cells got no call and are not listed
Target sequence (P16473 whole entry, looked up): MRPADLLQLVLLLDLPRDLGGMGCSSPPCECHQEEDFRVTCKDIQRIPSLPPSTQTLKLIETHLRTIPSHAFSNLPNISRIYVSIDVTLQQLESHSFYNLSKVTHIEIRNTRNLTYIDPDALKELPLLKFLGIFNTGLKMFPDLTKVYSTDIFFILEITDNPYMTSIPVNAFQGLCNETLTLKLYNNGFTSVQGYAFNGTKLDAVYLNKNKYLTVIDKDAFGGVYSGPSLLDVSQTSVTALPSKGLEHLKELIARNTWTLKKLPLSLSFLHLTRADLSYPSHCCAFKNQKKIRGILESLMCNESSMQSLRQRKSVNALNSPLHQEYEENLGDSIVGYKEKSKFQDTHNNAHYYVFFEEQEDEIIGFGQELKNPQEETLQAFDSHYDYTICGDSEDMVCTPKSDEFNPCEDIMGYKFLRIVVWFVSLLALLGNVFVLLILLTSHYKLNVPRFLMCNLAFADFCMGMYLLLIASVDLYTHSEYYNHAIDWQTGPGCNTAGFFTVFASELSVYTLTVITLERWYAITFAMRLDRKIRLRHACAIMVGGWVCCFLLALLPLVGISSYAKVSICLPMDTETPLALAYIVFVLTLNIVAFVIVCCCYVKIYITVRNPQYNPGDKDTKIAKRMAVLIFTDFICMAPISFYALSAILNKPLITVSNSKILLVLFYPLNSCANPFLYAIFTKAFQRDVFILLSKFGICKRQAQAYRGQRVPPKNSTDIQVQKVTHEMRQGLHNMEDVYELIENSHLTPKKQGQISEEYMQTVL
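cAMP rise detected as CNG-channel membrane depolarization by fluorescent dye (emission 590 nm), 30 min after compound, following 60 min dye loading containing 100 uM RO 20-1724 at room temperature. Cells: TSHR/CNG HEK 293, with parental CNG HEK 293 as control.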
A647 autofl: compound fluoresces in the A647 spectral region | max dye-equivalent concentration, M | Compound fluorescence, A647 channel (570/671 nm), Tris buffer | 59,000 tested, under 10 active; active means above 1 µM dye equivalent; inconclusive means 0.1 to 1 µM; inactive means 0.1 µM or less;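 also: values scaled relative to a standard on each plate; highest value over a series up to 38 µM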
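Compound fluorescence was measured in 100 mM Tris buffer, pH 8.0, after 15 min at room temperature, using 570 nm excitation and 671 nm emission filters. Signal was normalized to a per-plate Alexa 647 standard curve and expressed as dye-equivalent concentration at each compound concentration.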
A488 fluor: A488 region autofluorescence | compound autofluorescence, A488 spectral region, dye equivalency; stronger effect = higher value | max dye equivalency, M | 0.1% of 59,000 active | AID 591; active = above 10 nM dye equivalent; inconclusive = 1 to 10 nM; inactive = 1 nM or less; about half of its hits are not listed in these tables;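 also: highest value over a series up to 38 µM; compound alone in buffer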
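Compounds pin-transferred into 100 mM Tris buffer, pH 8.0, incubated 15 min at room temperature, then imaged with 480 nm excitation/540 nm emission filters. Fluorescence converted to Alexa 488 dye-equivalent concentration via an on-plate six-point A488 standard curve.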
The depositor's hits bear a star; i = inactive; ? = inconclusive; nt = no result given; [ ] = another dose, or the depositor's remark.

Values in the order – Resorufin fluor	AID923	TSHR ag	A647 autofl	A488 fluor
COc1ccc2nc(C)c3c(c2c1)OC(C)C3 (stereo not given)
    nt	0.3%	?	nt	nt
CC(C)(C)c1ccc(-c2nc(C#N)c(NCc3ccncc3)o2)cc1
    i	2.8%	5.7%	3.1e-09	i
Cc1ccccc1NC(=O)c1ccccc1O
    i	0.8%	6.1%	1e-09	i
CCCCc1ccc(NC(=O)N[C@H](C(=O)O)C(C)C)cc1
    i	-0.3%	-2.7%	3.53e-08	i
Cc1cc(C)c2cc(CN(CCO)Cc3nnnn3Cc3ccc(F)cc3)c(=O)[nH]c2c1
    i	0.3%	19.1%	1.4e-09	i
O=C(O)c1cccc(NS(=O)(=O)c2ccc3nnn(O)c3c2)c1
    i	-2.5%	-0.8%	6.57e-08	i
Cn1c(=O)c2c(nc(SCC(=O)NCc3ccco3)n2C)n(C)c1=O
    i	1.1%	-3.1%	3.46e-08	i
C[C@H]1COC(=O)[C@H]2CCCN2C(=O)[C@@H](C)COC(=O)[C@H](Cc2ccccc2)NC1=O
    nt	-1.8%[11.5 µM]	-5.9%[11.4 µM]	nt	nt
COc1ccc(C(=O)NC(=O)N2CCCCC2)cc1
    i	-0.3%	2.1%	3.5e-09	i
CN(C)Cc1ccccc1-c1nc(N2CCOCC2)c2ccccc2n1
    i	2.8%	?	1e-09	i

Values in the order – Resorufin fluor	AID923	TSHR ag	A647 autofl	A488 fluor
Cn1c(=O)n(CC(=O)NCc2cccnc2)c2ccccc21
    i	0.5%	-2.7%	1.6e-08	i
CCc1ccccc1NC(=O)c1nnn(CC(=O)Nc2cccc(C)c2C)c1N
    i	-0.1%	3.8%	3.3e-09	i
Cc1cc(NC(=O)COC(=O)c2cccc(S(=O)(=O)N3CCOCC3)c2)no1
    i	-0.1%	-3.1%	4.39e-08	i
CC1(C)CC(=O)C2=C(C1)OC(=O)C2(NC(=O)c1cccs1)C(F)(F)F (stereo not given)
    i	0.7%	-2.8%	1e-09	i
Cc1ccc2cccc(S(=O)(=O)Nc3ccc4c(c3)OCO4)c2n1
    i	5.9%	nt	1.8e-09	i
CN(CC(=O)Nc1ccc(C#N)cc1)Cc1ccc(Cl)cc1
    i	0.6%	21.1%	5.4e-09	i
CSc1ccc(C(=O)c2[nH]c(=O)[nH]c2C)cc1
    i	-2.8%	?	3.5e-08	i
Cn1c(=O)c(NC(=O)c2ccccc2)c2n(c1=S)CCCCC2
    i	-0.7%	nt	6.7e-09	i
C/C=C/CSc1nc2c(c(=O)[nH]c(=O)n2C)n1C(C)C
    i	0.7%	4.9%	1.71e-08	i
CCCc1nc(N)c(C#N)c(-c2cccnc2)c1CC
    nt	0.9%	11.3%	nt	nt

Values in the order – Resorufin fluor	AID923	TSHR ag	A647 autofl	A488 fluor
O=C(Nc1ccc(S(=O)(=O)N2CCCCC2)cc1)c1ccncc1
    i	0.5%	6.4%	5.47e-08	i
COc1ccc2[nH]cc(C(=O)N3CCCCC3)c(=O)c2c1
    i	0.1%	6.2%	1e-09	i
CSc1n[nH]c(NCc2ccccc2)n1
    i	-0.9%	0.0%	9.09e-08	i
C[C@@]1(C(NC(=O)c2cccs2)c2ccc(-c3ccccc3)cc2)C[C@H]1C1CCCCC1 (stereo not given in full)
    nt	4.8%	14.6%	nt	nt
COc1ccc(NC(=O)CN(C)S(=O)(=O)c2ccc3c(c2)OCCO3)c2ncccc12
    i	1.1%	8.6%	3e-09	i
Cc1nc2ccccn2c1C(=O)NCCCN1CCOCC1
    i	0.3%	0.0%	1.8e-08	i
CC1CCCC(C)N1CCCNC(=O)Cn1cc2c(n1)CCCC2 (stereo not given)
    nt	-3.6%	1.9%	nt	nt
CC(=O)NCCNc1nc(-c2c(C)noc2C)nc2ccccc12
    i	1.6%	6.7%	1.87e-08	i
Nc1cc(S(=O)(=O)C(F)(F)F)ccc1C(=O)O
    i	-1.0%	-0.8%	4.14e-08	i
O=C(c1cccc(F)c1)N1CCC2(CC1)CN(c1ccccn1)C2
    i	9.2%	0.5%	2.6e-09	i

Values in the order – Resorufin fluor	AID923	TSHR ag	A647 autofl	A488 fluor
CCc1nnc2sc(-c3ccc(NC(=O)CSc4ccc(Cl)cc4)cc3)nn12
    i	1.2%	12.7%	3.68e-08	i
CCOc1ccc2nc(SCC(=O)c3cccs3)sc2c1
    i	3.4%	27.8%	1e-09	i
Cc1cc2c(c(N3CCOCC3)n1)C(=O)OC2
    i	-0.8%	-3.6%	1e-09	i
Cc1ccc(-c2nc(-c3cccnc3)no2)cc1
    i	-0.1%	4.0%	6.5e-09	i
O=C(c1cn(-c2ccccc2)nc1-c1cccs1)N1CCN(c2ccccn2)CC1
    i	-1.0%	23.9%	5.4e-09	i
CC(C)N1C(=O)CCC1C(=O)NCc1ccccc1Cl (stereo not given)
    nt	3.3%	9.0%	nt	nt
CCOC(=O)N1CCC(C(=O)Nc2ccc(OCC)cc2)CC1
    nt	0.4%	-0.1%	nt	nt
CCc1ccc(C(=O)CSc2ncn[nH]2)cc1
    i	-0.7%	12.3%	2.36e-08	i
O=C(Nc1cccc(NC(=O)N2CCN(c3ccccc3)CC2)c1)N1CCN(c2ccccc2)CC1
    i	1.4%	-1.5%	2.09e-08	i
CC(C)C(=O)Nc1nnc(SCC(=O)NCc2cccs2)s1
    i	0.9%	-2.0%	1.59e-08	i

A section from further up, for reference:
Values in the order – Resorufin fluor	AID923	TSHR ag	A647 autofl	A488 fluor
CCc1ccc(C(=O)CSc2ncn[nH]2)cc1
    i	-0.7%	12.3%	2.36e-08	i
O=C(Nc1cccc(NC(=O)N2CCN(c3ccccc3)CC2)c1)N1CCN(c2ccccc2)CC1
    i	1.4%	-1.5%	2.09e-08	i
CC(C)C(=O)Nc1nnc(SCC(=O)NCc2cccs2)s1
    i	0.9%	-2.0%	1.59e-08	i

(further entries)
Values in the order – Resorufin fluor	AID923	TSHR ag	A647 autofl	A488 fluor
O=C(c1ccc(F)cc1)C1CCN(C(=O)NCc2ccccc2)CC1
    i	-3.5%	4.0%	4.1e-09	i
CC(=O)NCCNc1ccnc(-c2ccccc2C)n1
    i	-0.5%	5.8%	1e-09	i
CCOC(=O)c1cc(NC(=O)c2cccnc2)cc(C(=O)OCC)c1
    i	-0.4%	-8.1%	1.06e-08	i
COc1ccc(C(=O)NCC(C)CN(C)C)cc1 (stereo not given)
    i	0.3%	-1.3%	1e-09	i
O=C(CN(c1ccccc1F)S(=O)(=O)c1ccccc1)N1CCCCCC1
    nt	2.1%	?	nt	nt
COc1ccc(C2(C(=O)NCCCN(C)C)CCOCC2)cc1
    nt	-1.8%	-6.8%	nt	nt
CCCC(c1nnnn1C1CCCC1)N1CCN(c2ccccc2F)CC1 (stereo not given)
    i	0.0%	?	2.06e-08	i
Cc1cccc(C)c1N(CC(=O)Nc1cccc(N(C)S(C)(=O)=O)c1)S(C)(=O)=O
    i	-1.0%	-5.3%	1e-09	i
O=C(O)c1ccc(-n2c(-c3ccccc3)n[nH]c2=S)cc1
    i	-0.5%	29.3%	1.44e-08	i
Cc1ccc(NC(=O)C2CCCN(S(=O)(=O)c3c(C)noc3C)C2)nc1 (stereo not given)
    i	0.5%	-0.2%	6.4e-09	i

Values in the order – Resorufin fluor	AID923	TSHR ag	A647 autofl	A488 fluor
Cc1ccc(S(=O)(=O)NC(=O)COc2ccccc2C(N)=O)cc1
    i	-2.0%	4.1%	1.58e-08	i
Cc1ccccc1-c1nc(N(C)C)c2ccccc2n1
    i	0.9%	?	2.5e-08	i
COc1ccc(-c2nnc3sc(-c4cccs4)nn23)cc1OC
    i	-1.5%	12.8%	1e-09	i
COC(=O)c1ccccc1NS(=O)(=O)c1ccc(F)cc1
    i	0.2%	12.4%	2.6e-09	i
Cc1cnc(CNc2ncnc3ccc(-c4ccc(C(=O)N(C)C)cc4)cc23)cn1
    i	0.8%	3.2%	1e-09	i
Cc1ccccc1NC(=O)c1c(O)c2cccc3c2n(c1=O)CCC3
    i	-0.4%	1.6%	1e-09	i
Cc1cc(NC(=O)Cn2c(=O)n(Cc3ccccc3)c(=O)c3ccccc32)no1
    i	-0.3%	-5.2%	2.1e-09	i
COc1ccc(Br)cc1CNC(=O)CCc1nc(-c2ccccc2F)no1
    i	-0.2%	?	2.13e-08	i
O=C(CCCCCN1C(=O)CCC1=O)Nc1ccc2c(c1)OCCO2
    i	-2.5%	3.2%	1e-09	i
COc1ccc(C2=Nn3c(nnc3-c3ccccn3)SC2)cc1
    i	nt	nt	2.13e-08	i

Values in the order – Resorufin fluor	AID923	TSHR ag	A647 autofl	A488 fluor
CCSc1cc(C2C(C(=O)OC)=C(C)NC3=C2C(=O)CCC3)c(C)o1 (stereo not given)
    i	-1.2%	13.8%	2.6e-08	i
O=c1ccc2cc3ccoc3cc2o1
    i	0.2%	-0.7%	2.23e-08	i
COc1cccc(NC(=O)CC2SC(=Nc3ccccc3)NC2=O)c1 (stereo not given)
    i	nt	nt	1.11e-08	i
COc1cc(S(=O)(=O)N2CCN(c3ccccc3)CC2)ccc1Cl
    nt	0.7%	-9.6%	nt	nt
CCCOc1ccc2ccccc2c1/C=N/n1cnnc1
    nt	-1.1%	?	nt	nt
COc1ccc(C2CC(c3ccc(Br)cc3)Nc3nc(N)nn32)cc1 (stereo not given)
    i	0.0%	-3.8%	7.5e-09	i
COC(=O)c1ccc(CSc2nnnn2Cc2ccccc2)cc1
    i	-0.2%	?	2.2e-09	i
O=C(NCc1cn2ccsc2n1)c1c(F)cccc1Cl
    nt	0.6%	2.1%	nt	nt
Cc1ccc(Cn2c(=O)c3ccccc3n3c(SCC(=O)N4CCCCC4C)nnc23)cc1 (stereo not given)
    i	-2.2%	?	8.7e-09	i
COc1cc2c(cc1NC(=O)C1CCCO1)oc1ccccc12 (stereo not given)
    i	-0.5%	nt	8.7e-09	i

Values in the order – Resorufin fluor	AID923	TSHR ag	A647 autofl	A488 fluor
CC(C)CC(=O)Nc1cccc(-c2cn3ccsc3n2)c1
    i	-0.5%	15.8µM*	5.47e-08	i
CCOCCCn1c(=S)[nH]c2cc(C(=O)N3CCN(C)CC3)ccc2c1=O
    i	-1.1%	?	2.47e-08	i
CCn1c(CSc2nc(C)cs2)nc2cc(S(=O)(=O)N(C)C)ccc21
    i	0.0%	14.4%	2.73e-08	i
CCOc1ccccc1N1CCN(S(=O)(=O)c2ccc3c4c(cccc24)C(=O)N3)CC1
    i	2.5%	0.0%	5.2e-09	i
C=CCn1cnc2c(c1=O)c1nc3ccccc3nc1n2-c1ccc(C)cc1
    i	nt	nt	1.3e-08	i
COc1ccc(C(=O)Nc2nnc(-c3ccccc3)o2)cc1OC
    i	1.1%	21.4%	8e-09	i
CN(C)c1ccc(C2N3CC4(C)CN2CC(C)(C3)C4O)cc1 (stereo not given)
    nt	-0.3%	-1.6%	nt	nt
COCCN(CCOC)C(=O)CCn1c(=O)oc2ccccc21
    i	-1.7%	2.9%	1e-09	i
CSc1nnc(-c2ccc(S(=O)(=O)N3CCCC3)cc2)n1C
    i	-0.2%	29.2%	2.3e-09	i
CC(Sc1nnc(-c2ccc(Cl)cc2)n1C)C(N)=O (stereo not given)
    i	-1.0%	3.8%	2.88e-08	i
CCCN(CCc1ccccc1)[C@H]1CCc2c(O)cccc2C1
    i	-1.2%	?	1e-09	i

An excerpt (hit frequency here may not be typical).
